PMP22 txn prim – modulates PMP22 transcription in S16 Schwann cells; Potency, µM (series often up to 57.5 µM), for inactives: at the highest dose activity change, negative = inhibition, actives largely listed as inhibitors; AID 1508649; 43,000 tested, 2% active; S16 Pmp22-F2sN Schwann cells (luciferase reporters placed in the Pmp22 gene), FLuc/NLuc coincidence luminescence, 24 h; active = clear falling dose curves in both reporters; inconclusive = both reporters move, but less clearly or upward; inactive = either reporter flat; the % is the NLuc reporter signal; also: % is scaled to controls: 0 for no effect and ±100 for the full control effect; some results filed as inactive show a strong effect at the top dose
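Transcriptional readout in edited S16(c9) cells: two luciferases reported from the Pmp22 locus, measured in turn after 24 h compound incubation.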
HTT promoter inh – inhibits huntingtin promoter activity; HEK293 HTT promoter firefly luciferase reporter (activity 0% = vehicle and -100% = no light), 24 h; Potency, µM (top dose mostly 57.5 µM), for the others: at the top dose activity change, negative = inhibition, usual class: inhibitors; 48,000 tested, 0.93% active; AID 1508623; active = well fitted inhibition curve with a large enough effect; inconclusive = small, poorly fitted or top-dose-only effect; inactive = no such curve, though single readings can be large or run the other way; also: nearly all actives have a fitted effect of over 50% in size
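Quantitative HTS used concentration series of up to 57.5 uM final on HEK293 luciferase reporter cells, 24 h at 37 degrees C. Readout was Dual-Glo firefly luminescence.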
Starred values were filed as active, the others as inactive; ? = inconclusive; . = no result given; [ ] = remark or other dose. Potency is read from the fitted curve at half-maximal effect.

SMILES	PMP22 txn prim	HTT promoter inh
COc1ccc(NC(=O)c2cnc(Nc3ccc(C)c(Cl)c3)c3ccccc23)c(OC)c1	-20.8%	-3.3%
COc1ccc(Cl)cc1NC(=O)CN(C)S(=O)(=O)c1ccc(Br)s1	-25.7%	-23.0%
Cc1nn(C)c(C)c1S(=O)(=O)N(CC(=O)N1CCN(c2ccccc2)CC1)c1ccc(C(C)C)cc1	-11.0%	1.6%
NC1=NC(c2cccc(Cl)c2)n2c(nc3ccccc32)N1 (centres undefined)	-24.7%	12.4%
COc1ccc(-c2c(C)nn3c4c(cnc23)C(=O)CC(c2ccc(C)cc2)C4)cc1 (centres undefined)	-0.1%	-11.5%
COc1cc(Cl)c(C)cc1NC(=O)c1sc2nc3n(c(=O)c2c1C)CCCCC3	-2.4%	-1.7%
COc1cc(NC(=O)c2c(C)oc3ncnc(N4CCCCC4)c23)cc(OC)c1	-16.8%	-12.9%
CCc1ccc(-n2c(SCc3ccccc3F)nc3[nH]ncc3c2=O)cc1	?	?
O=C(CSc1nc2c(c(=O)[nH]1)CCC2)Nc1cc(C(F)(F)F)ccc1Cl	3.8%	-17.3%
COc1cccc(Cn2c(=O)n(Cc3ccco3)c(=O)c3oc4ccccc4c32)c1	?	-1.1%
Cc1ccc(Cn2c(C)c3cnn(CC(=O)N4CCN(c5cc(C)ccc5C)CC4)c(=O)c3c2C)cc1	11.9µM*	?
CCOc1ccc(CNCc2c(C(=O)O)n(Cc3ccccc3F)c3cc(OC)ccc23)cc1	4.3%	-20.1%
Cc1oc(-c2ccccc2F)nc1CSc1nnc(C)n2c1cc1occc12	-2.9%	-3.8%
Cc1c(-c2cccc(NC(=O)Cc3ccccc3)c2)nc2ncccn12	-12.2%	-3.9%
CC(C)CC(=O)Nc1nnc(SCc2cc(=O)n3ccccc3n2)s1	-31.0%	-5.2%
Cc1cc(C)cc(NS(=O)(=O)c2ccc3[nH]cc(C(=O)NCc4ccco4)c(=O)c3c2)c1	-9.5%	?
COc1ccccc1NC(=O)CCS(=O)(=O)c1cc2c3c(c1)CCN3C(=O)CC2	-24.0%	4.4%
Cc1ccc(NS(=O)(=O)c2cc3[nH]c(=O)c(=O)[nH]c3cc2C)cc1N(C)C	-5.4%	9.3%
O=C(NCc1ccc(F)cc1)c1c2c(nc3ccccc13)C(=O)N(C1CCCCC1)C2	-7.8%	2.4%
O=C(Nc1cccc(C(F)(F)F)c1)c1cc(S(=O)(=O)N2CCCC2)c[nH]1	-5.8%	-11.4%
COC(=O)c1ccc(NC(=O)CSc2nc(C)cc(C)c2C(=O)Nc2ccccc2)cc1	30.6%	?
Cc1ccccc1NC(=O)NCCc1c[nH]c2ccccc12	-23.5%	-20.5%
CC(=O)Nc1ccc(-c2nnc3n(CC(C)C)c(=O)c4ccccc4n23)cc1	?	4.2%
CCc1nnc(NC(=O)c2cc(=O)c3cc(C)c(C)cc3o2)s1	-28.5%	-5.6%
COc1ccc(Cn2c(=O)n(-c3ccc(C)cc3)c(=O)c3c2c2cc(C)ccc2n3C)cc1	-30.3%	-3.4%
CCC(=O)Nc1ccc2nc(SCCOc3ccc(C)cc3)sc2c1	-22.4%	-5.6%
CCc1cccc2c(-c3ccccc3)nc(SCC(=O)Nc3ccc(OC)cc3)nc12	-10.9%	-19.3%
COC(=O)C(NC(=O)CC(C)C)(Nc1nc2c(s1)CCCC2)C(F)(F)F (centres undefined)	-1.8%	-17.2%
Cc1csc2nc(-c3cccc(NC(=O)c4c(F)cccc4F)c3)cn12	?	-4.4%
Cc1ccc2onc(CC(=O)Nc3cccc(C(F)(F)F)c3)c2c1	?	?
COc1cc(CNCCSc2nnnn2C)ccc1OCc1ccc(C)cc1	?	26.2%
CC(C)Cn1c(=O)c2ccccc2n2c(CCC(=O)NC(C)c3ccccc3)nnc12 (centres undefined)	-4.3%	7.8%
Cc1cccn2c(=O)c(C(=O)NCc3cccc(F)c3)cnc12	0.5%	4.0%
COc1cc(-c2cc3n(C)c(C)c(CCC(=O)Nc4ccc(F)cc4)c(=O)n3n2)cc(OC)c1OC	9.1%	9.4%
CCc1nc2ccc(C(=O)NCCc3ccc(SC)cc3)cc2nc1CC	-10.1%	2.3%
Nc1ccn(C2CO[C@H](CO)O2)c(=O)n1 (some centres undefined)	.	4.6%
Cc1ccc(OCC(=O)N(Cc2ccco2)c2ccccn2)cc1	1.9%	-0.5%
COc1ccc(N2CC(c3nc(-c4cc(OC)c(OC)c(OC)c4)no3)CC2=O)cc1Cl (centres undefined)	-39.0%	-11.5%
CC(=O)OCC1=C(C(=O)O)N2C(=O)[C@@H](NC(=O)CSc3ccncc3)[C@H]2SC1	.	-3.3%
Cc1ccc(Cl)cc1N1CCN(c2ncnc3onc(-c4ccc(F)cc4)c23)CC1	-28.5%	0.0%
COc1ccc(CN2CCc3nc(SCC(=O)Nc4cc(C)cc(C)c4)[nH]c(=O)c3C2)cc1	0.8%	?
CSc1nn(Cc2cccc(C)c2)c(N)c1S(=O)(=O)c1ccccc1	?	?
COc1ccc(C(=O)Nc2ccc(-c3cc4ccccc4oc3=O)c(C)c2)cc1Br	?	?
Cc1ccc(C)c(NC(=O)C(=O)NCC(c2cccnc2)N2CCN(c3ccc(F)cc3)CC2)c1 (centres undefined)	?	?
Cc1cc(C)c(-c2n[nH]c3c2C(c2ccccc2F)N(CCO)C3=O)c(O)c1 (centres undefined)	?	?
CCCCOc1ccc(CNC(=O)Cc2ccc(NC(=O)N3CCCCc4ccccc43)cc2)cc1	?	-14.6%
CCN(CC)S(=O)(=O)c1ccc2c(c1)nc(CN(C)C(=O)Nc1ccc(C)c(Cl)c1)n2C	0.7%	-26.6%
COc1ccc(N2CC(NC(=O)c3ccc(S(=O)(=O)N4CCOCC4)cc3)CC2=O)cc1OC (centres undefined)	4.0%	-17.1%
CC(=O)c1cc(-c2ccc(F)cc2)n(CC(=O)Nc2cc(C)cc(C)c2)c1C	14.3%	?
CCCCN(CCCC)CCn1cnc2c([nH]c3ccc(OC)cc32)c1=O	-24.5%	-18.6%
NC(=O)Cn1c(=O)n(CCCCCC(=O)NCc2ccccc2Cl)c(=O)c2sccc21	-2.1%	-4.7%
Cc1ccc(NC(=O)C2CCN(c3nnc(-n4cccc4)s3)CC2)cc1Cl	?	-20.2%
CCOc1ccccc1NC(=O)CN(c1cc(C)cc(C)c1)S(=O)(=O)c1c(C)nn(C)c1C	?	?
O=C(c1ccccc1Cl)N(Cc1ccco1)Cc1ccco1	12.3%	-4.1%
Cc1cccc(N2CCN(C(=O)c3ccc(Nc4nc5ccccc5n5nnnc45)cc3)CC2)c1C	-41.9%	16.4%
O=C(Cc1ccc(F)cc1)NC1CC(=O)N(c2ccc3c(c2)OCCO3)C1 (centres undefined)	0.9%	-11.7%
CC1=C(C(=O)OC2CCCCCC2)C(c2ccc(Cl)cc2)CC(=O)N1 (centres undefined)	?	-30.0%
CC1CCCCN1S(=O)(=O)c1ccc(C(=O)Nc2sc3c(c2C(N)=O)CC(C)(C)NC3(C)C)cc1 (centres undefined)	?	-11.5%
NC(=O)N1c2ccccc2C=Cc2ccccc21	.	3.4%
COc1ccc2c(c1)C(=O)N(CCc1ccc(S(=O)(=O)NC(=O)NC3CCCCC3)cc1)C(=O)C2(C)C	.	5.8%

The listing continues.
SMILES	PMP22 txn prim	HTT promoter inh
CCc1ccc2oc(C(=O)NCC(c3ccc(Cl)cc3)N3CCOCC3)c(C)c2c1 (centres undefined)	-43.7%	?
CC(=O)C1=C(O)C=C2Oc3c(C(C)=O)c(O)c(C)c(O)c3C2(C)C1=O (centres undefined)	.	0.5%
CC(=O)c1ccc(NC(=O)C2CCC(CNS(=O)(=O)c3ccc4c(c3)CCCC(=O)N4)CC2)cc1 (centres undefined)	?	-4.3%
CCc1ccc(C2C(C(=O)Nc3ccccc3OC)=C(C)Nc3nc(SCc4ccccc4)nn32)cc1 (centres undefined)	-7.0%	-2.7%
CCc1ccccc1NC(=O)c1cnc(N2CCCCC2)c2ccccc12	-22.5%	?
CCc1ccc2oc(C(=O)NCCc3ccc(OC)c(OC)c3)cc(=O)c2c1	?	?
O=C(Nc1ccc(F)c(Cl)c1)C1Cc2ccccc2CN1S(=O)(=O)c1ccc(F)cc1 (centres undefined)	-20.5%	?
CCc1ccc2nc(N3CCN(C(=O)c4ccccc4)CC3)sc2c1	-24.0%	?
O=C(Cn1c(=O)oc2cc(S(=O)(=O)N3CCCCCC3)ccc21)NCc1ccccc1Cl	?	?
CCOc1ccc2nc(N3CCCC(C(=O)Nc4c(C)cccc4C)C3)sc2c1 (centres undefined)	-75.1%	53.9%[activator]
COc1cc(C2C(C(=O)Nc3ccccc3)=C(C)Nc3nc(SCC(=O)c4ccc(C)cc4)nn32)ccc1O (centres undefined)	?	9.8%
Fc1cccc(-n2ncc3c2ncn2nc(Cc4ccccc4)nc32)c1	8.5%	-10.5%

A few values from the list:
O=C(Nc1ccc(F)c(Cl)c1)C1Cc2ccccc2CN1S(=O)(=O)c1ccc(F)cc1 (centres undefined) – PMP22 txn prim: -20.5%
CCOc1ccc2nc(N3CCCC(C(=O)Nc4c(C)cccc4C)C3)sc2c1 (centres undefined) – HTT promoter inh: 53.9%[activator]
CCc1ccc2nc(N3CCN(C(=O)c4ccccc4)CC3)sc2c1 – PMP22 txn prim: -24.0%
CCc1ccc(C2C(C(=O)Nc3ccccc3OC)=C(C)Nc3nc(SCc4ccccc4)nn32)cc1 (centres undefined) – PMP22 txn prim: -7.0%
CCc1ccc2oc(C(=O)NCC(c3ccc(Cl)cc3)N3CCOCC3)c(C)c2c1 (centres undefined) – PMP22 txn prim: -43.7%

(cont.)
SMILES	PMP22 txn prim	HTT promoter inh
O=C(O)c1ccc(CNCc2ccc(Cl)cc2)s1	1.5%	-11.5%
Cc1cc2oc3c(c(=O)c2cc1C)C(c1ccc(C(C)C)cc1)N(c1nc(C)c(C)s1)C3=O (centres undefined)	-2.0%	-7.6%
CC(=O)C1=C(c2ccc(C)c(C)c2)N(C(C)=O)n2c(nnc2-c2ccc(Cl)cc2)S1	?	-13.6%
Cc1ccc(S(=O)(=O)c2nc(-c3ccco3)oc2SCC(=O)Nc2ccc(F)cc2)cc1	-21.1%	-15.1%
COc1cccc(N2CCN(C(=O)CN3C(=O)COc4ccc(S(=O)(=O)N5CCC(C)CC5)cc43)CC2)c1	-22.0%	-12.6%
COc1cc(Nc2nc3ccccc3nc2NS(=O)(=O)c2ccc(NC(=O)c3ccc(C)c(OC)c3)cc2)cc(OC)c1	.	?
Cc1ccc(NC(=O)c2oc3ccccc3c2NC(=O)Cc2ccccc2)cc1	-3.6%	-7.0%
COC(=O)Cc1c(C)c2ccc3c(c2oc1=O)CN(Cc1ccccc1OC)CO3	-9.1%	-6.4%
CC(NC(=O)c1ccc2c(c1)N(Cc1ccc(Cl)cc1)C(=O)CS2)c1ccccc1 (centres undefined)	-40.5%	-17.7%
COc1cc2nc(N3CCCN(C)CC3)nc(NC3CCN(Cc4ccccc4)CC3)c2cc1OC	.	?
CCCn1c(=O)sc2cc(NC(=O)c3ccccc3Cl)ccc21	?	-3.2%
COc1ccc(-c2nc3scc(CCNS(=O)(=O)c4ccc(Oc5ccccc5)cc4)n3n2)cc1OC	-13.4%	-23.9%

Whole records as entered above. Order of values: PMP22 txn prim	HTT promoter inh
Results for COc1cccc(N2CCN(C(=O)CN3C(=O)COc4ccc(S(=O)(=O)N5CCC(C)CC5)cc43)CC2)c1 : -22.0%	-12.6%
Results for CCCn1c(=O)sc2cc(NC(=O)c3ccccc3Cl)ccc21 : ?	-3.2%

5 entries from above in another layout:
| Structure | PMP22 txn prim | HTT promoter inh |
| --- | --- | --- |
| COc1cc(-c2cc3n(C)c(C)c(CCC(=O)Nc4ccc(F)cc4)c(=O)n3n2)cc(OC)c1OC | 9.1% | 9.4% |
| CCc1nc2ccc(C(=O)NCCc3ccc(SC)cc3)cc2nc1CC | -10.1% | 2.3% |
| Nc1ccn(C2CO[C@H](CO)O2)c(=O)n1 (some centres undefined) | . | 4.6% |
| Cc1ccc(OCC(=O)N(Cc2ccco2)c2ccccn2)cc1 | 1.9% | -0.5% |
| COc1ccc(N2CC(c3nc(-c4cc(OC)c(OC)c(OC)c4)no3)CC2=O)cc1Cl (centres undefined) | -39.0% | -11.5% |

Later entries:
SMILES	PMP22 txn prim	HTT promoter inh
CCCCOc1cccc(C2c3c(-c4cc(C)ccc4O)n[nH]c3C(=O)N2CCOC)c1 (centres undefined)	?	-27.8%
COc1cc(OC)c(NC(=O)N2CCc3c([nH]c4ccccc34)C2c2ccccc2F)cc1Cl (centres undefined)	-16.0%	?
COc1ccc(NC(=O)c2cc(C3CC3)nc3c2c(C)nn3-c2ccccc2)cc1OC	8.9%	?
CC(=O)N1CCc2cc(S(=O)(=O)NC(Cc3ccccc3)C(=O)Nc3ccc(C)cc3C)ccc21 (centres undefined)	-3.1%	-22.8%
Cc1ccc(-n2nc(CO)c(C(=O)NCCCc3ccccc3)n2)cc1C	6.7%	9.8%
Cc1ccc(CNC(=O)CCCN2C(=O)CCn3nc(-c4cccn4C)cc32)cc1	1.8%	-1.8%
CC(C)CC(C(=O)NCc1ccc(F)cc1)N1Cc2ccccc2C1=O (centres undefined)	14.8%	-23.5%
COc1ccc(-c2noc(-c3ccc(C)cc3Cl)n2)cc1OC	-2.6%	35.6%[activator]
CCCCS(=O)(=O)c1nc(-c2ccc(Br)cc2)cc(-c2ccccc2)c1C#N	6.78µM*	?
COc1ccc(CCNC(=O)CCCn2c(=O)c3ccccc3n(Cc3ccccc3C#N)c2=O)cc1OC	1.8%	-4.2%
Cc1cccc(NC(=O)c2ccc(CNS(=O)(=O)c3ccc4c(c3)C(C)(C)C(=O)N4C)cc2)c1	6.2%	?

Screening data from PubChem.
